Source: PubChem BioAssay
Vaccinia Venus – vaccinia inhibition (Venus reporter) | Vaccinia virus Venus reporter expression, fluorescence | Potency, µM (doses to about 36.5 µM), inactives show at the top dose activity change, negative = inhibition, hits mostly inhibitors | 0.46% of 330,000 active | AID 720580; active means well fitted inhibition curve with a large enough effect; inconclusive means small, poorly fitted or top-dose-only effect; inactive means no such curve, though single readings can be large or run the other way; tested in A549 cells; note: nearly all actives have a fitted effect of over 30% in size; inactives centre near -10
Vaccinia mCherry – inhibitors of vaccinia virus infection (mCherry reporter signal). Potency, µM (doses to about 36.5 µM), without a hit: top-dose activity change, negative = inhibition, most hits filed as inhibitors. AID 720579. Vaccinia virus mCherry reporter infection, fluorescence; about a quarter of the inactives have no number. 0.63% of 310,000 active; active = well fitted inhibition curve with a large enough effect; inconclusive = small, poorly fitted or top-dose-only effect; inactive = no such curve, though single readings can be large or run the other way; tested in A549 cells; note: nearly all actives have a fitted effect of over 35% in size; inactives centre near -10
* marks the source's active call; other numbers are inactive results; i = inactive; ? = inconclusive; · = not tested or not shown; [ ] = dose if it differs, or a comment. % is set by controls: 0 for no effect and ±100 for the full control effect; potency is the fitted concentration of half-maximal effect.

Screens in order – Vaccinia Venus, Vaccinia mCherry
1: CCOc1cc(CNc2ccc(N3CCOCC3)cc2)cc(Br)c1OCC
  -12%, -16%
2: COc1ccc(CCNC(=O)COC(=O)C2=NNC(=O)CC2)cc1
  -13%, -13%
3: COc1ccc2c(CC(=O)Nc3ccc(OC)c(NS(=O)(=O)c4ccc(F)cc4)c3)coc2c1
  -13%, -26%
4: NC(=O)c1ccc(Cn2c(C(=O)c3cc(Cl)c(N)c(Cl)c3)c3ccccc3[n+]2[O-])cc1
  -22%, -23%
5: Cc1ccc(S(=O)(=O)Nc2cc(=O)[nH]c(SCC(=O)Nc3cccc(C(F)(F)F)c3)n2)cc1
  -30%, ?
6: O=C(CCc1ccccc1)NNC(=O)c1ccc(Cl)cc1
  -15%, -1%
7: CC(C(=O)OCC(=O)c1ccccc1)N1C(=O)C2C3CCC(C3)C2C1=O (stereo not given)
  -10%, -7%
8: O=C(C[C@H]1C(=O)N(CCc2ccccc2)C[C@@H]1Cc1ccccc1)Nc1ccc(Br)cc1
  -28%, -19%
9: CN(C)c1ccc(/C=N/Nc2nncc3ccccc23)cc1
  -9%, i
10: Cc1ccc(-c2c(C)n3c4c(=O)n(C)c(=O)n(C)c4nc3n2CCCO)cc1
  -26%, -25%
11: O=C(O)c1cccc2c1C(=O)c1ccc(N3CCN(Cc4ccc5c(c4)OCO5)CC3)cc1S2(=O)=O
  -9%, -1%
12: CC(C)(CO)NCC#Cc1ccccc1
  0%, -13%
13: CC(=O)Nc1ccc(S(=O)(=O)N2CCC(c3nnnn3-c3ccccc3)CC2)cc1
  -10%, -6%
14: O=C1N2CCCCC1(Sc1ccccc1)CCC2 (stereo not given)
  4%, -8%
15: Cc1cccc(Cc2c(C)nc3nc(SCc4ccccc4C)nn3c2C)c1
  -11%, i
16: CC1(c2nnnn2Cc2ccccc2)CCC(=O)N1Cc1cccnc1 (stereo not given)
  0%, -1%
17: COCCn1c(=O)c2c(nc3n2CCCN3CCc2ccc(OC)c(OC)c2)n(C)c1=O
  -17%, i
18: COc1ccc(Cc2c(-c3ccccc3)nc3cc(C)c(Br)c(C)n23)c(C)c1
  12%, -2%
19: CN(C(=O)c1cccc(NC(=O)C2CCCN(C(=O)OC(C)(C)C)C2)c1)C1CCC1 (stereo not given)
  -14%, ?
20: CCOc1ccccc1NC(=O)CN(c1ccc(C)cc1)S(=O)(=O)c1c(C)n[nH]c1C
  ?, ?
21: O=C(Nc1ccccc1N1CCOCC1)C1CCN(S(=O)(=O)c2ccc(F)cc2)CC1
  -6%, -4%
22: CCOC(=O)C1(C)Oc2ccccc2C(c2ccc(OC)cc2)=C1C(=O)OC (stereo not given)
  -7%, ?
23: CC(C)c1ccc(-c2cc(C(=O)NN3CCN(C)CC3)c3ccccc3n2)cc1
  -27%, ?
24: Cc1nc(N(CCO)C2CCCCC2)c2nnn(Cc3ccccc3)c2n1
  -3%, i
25: COc1cccc(NP(=O)(Oc2ccccc2)Oc2ccccc2)c1
  -26%, ?
26: CC(C)C(C(=O)Nc1ncn[nH]1)N1C(=O)c2ccccc2C1=O (stereo not given)
  -9%, -17%
27: CC(C)CN1Cc2cc(-c3ccccc3)ccc2-n2nncc2C1
  -5%, 4%
28: C=CCn1c(O)c(/C(CC)=N/NC(=S)Nc2ccccc2)c(=O)[nH]c1=O
  -7%[7.34 µM], 0%[7.34 µM]
29: CC(=O)N1CCc2cc(Br)cc(S(=O)(=O)NCc3ccccn3)c21
  -18%, -14%
30: Cc1ccc(S(=O)(=O)N(Cc2cccnc2)Cc2cc3ccccc3[nH]c2=O)cc1
  -9%, -13%
31: CC(C)CC(=O)NC(=S)Nc1cc(C(=O)O)ccc1Cl
  -4%, -4%
32: O=C(CNC(=O)c1ccc(OC(F)F)cc1)NCC1CCCO1 (stereo not given)
  -3%, i
33: CCOC(=O)c1cc(-c2ccc(N3C(c4ccsc4)=Cc4ccccc4C3CC(C)=O)cc2)cc([N+](=O)[O-])c1 (stereo not given)
  -3%, -8%
34: O=S(=O)(NCC(c1cccs1)S(=O)(=O)c1ccccc1)c1ccccc1 (stereo not given)
  -15%, -19%
35: COC(=O)c1c[n+]([O-])ccc1OC
  3%, -1%
36: CCc1nc2ccc(C(=O)NCCc3ccccn3)cn2c1N(CC)CCOC
  -7%, 34%[activator]
37: CC1CCN(CCC(=O)Nc2ccccc2)CC1
  -15%, i
38: CCCCCn1c(=N)c(S(=O)(=O)c2ccc(C)cc2)cc2c(=O)n3cc(C)ccc3nc21
  -2%, -3%
39: O=C1NC(=O)/C(=C\c2ccsc2)N1
  4%, -3%
40: Cc1ccc(C)c(N2CCN(S(=O)(=O)c3ccc(-c4ccc(=O)[nH]n4)o3)CC2)c1
  -10%, i
41: C[C@H](CO)N1C[C@H](C)[C@@H](CN(C)C(=O)NC2CCCCC2)Oc2c(NS(=O)(=O)c3cccs3)cccc2C1=O
  -12%, -9%
42: CN1CCN(C(=O)c2ccc(CNS(=O)(=O)c3cccc(Cl)c3)cc2)CC1
  -7%, i
43: O=S(=O)(c1ccccc1)N1CCC(O)(CSc2ccc(F)cc2)CC1
  ?, ?
44: COc1ccc2c(C=Nc3c(C)n(C)n(-c4ccccc4)c3=O)c(O)n(Cc3ccco3)c(=O)c2c1
  -14%, ·
45: CCC1CSC(Nc2ccc(C(=O)/C=C/c3ccc(Oc4ccccc4)cc3)cc2)=N1 (stereo not given)
  ?, ?
46: Cc1cc(C(=O)N2CCCC(Nc3ccc(F)cc3)C2)n(C)n1 (stereo not given)
  -4%, -13%
47: CN1C(=O)Cc2cc(S(=O)(=O)N3CCOCC3)ccc21
  5%, -12%
48: COc1cc(NC(=S)NC(=O)CCc2ccccc2)cc(OC)c1
  -11%, -3%
49: O=c1nc(-c2ccccc2)n(-c2ccccc2)c2ncccc12
  -13%, -6%
50: CC(C)c1ccc(C2NC(=O)c3ccccc3O2)cc1 (stereo not given)
  -10%, i
51: Cc1cnc(NC(=O)NCC2CCCC(CNC(=O)Nc3ncc(C)s3)C2)s1 (stereo not given)
  ?, -19%
52: O=C(CSc1nc2ccsc2c(=O)n1-c1ccc(Br)cc1)NCc1ccccc1
  -16%, -18%
53: Cc1ccc(Cn2c(CO)cnc2SCC(=O)Nc2cccc(F)c2)cc1
  -1%, -2%
54: CCCc1nc2c(sc3nc4c(cc32)COC(C)(C)C4)c(=O)n1Cc1ccco1
  -14%, -19%
55: CCOC(=O)C1CCN(C(=O)CCc2nc3ccccc3[nH]2)CC1
  -16%, ·
56: O=C(/C=C/c1ccccc1[N+](=O)[O-])c1ccccc1Br
  -18%, -17%
57: CC(C)Oc1cccc(NC(=O)C2CCN(S(=O)(=O)Cc3ccccc3)CC2)c1
  -13%, -18%
58: O=C1N(CN2C(=O)C3(OCCO3)c3ccccc32)c2ccccc2C12OCCO2
  -14%, ·
59: O=C(COC(=O)C1CCC1)Nc1ncc(Cl)cc1Cl
  9%, -16%
60: Cc1c(C(=O)N2CCCCC2)sc(NC(=O)C2CC2)c1C#N
  -11%, -2%

(listing goes on)
Screens in order – Vaccinia Venus, Vaccinia mCherry
61: CCOC(=O)C1CCN(C(=O)CN2c3ccc(C(C)C)cc3-c3ccccc3S2(=O)=O)CC1
  -13%, 3%
62: COC(=O)COc1ccc2oc(=O)cc(C)c2c1
  2%, ·
63: CCOC(=O)C(C)Oc1cccc2c(=O)n(CC(=O)NCc3ccc4c(c3)OCO4)ccc12 (stereo not given)
  ?, 100µM*
64: O=C(NC1CCCC1)C1CCN(C(=O)c2ccc(Cl)cc2Cl)CC1
  -2%, -9%
65: O=C(COC(=O)c1ccccc1Cc1ccccc1)Nc1ccc(SC(F)F)cc1
  -18%, -1%
66: Cn1c(=O)oc2ccccc2c1=O
  -7%, -9%
67: CN(Cc1ccccc1)C(=O)c1nc[nH]c1C(=O)N1CCN(C(=O)OC(C)(C)C)CC1
  3%, -7%
68: CCCCCC(=O)Nc1cc(S(=O)(=O)O)cc2cc(S(=O)(=O)O)cc(O)c12
  -12%, -22%
69: COc1ccccc1CNC(=O)CCc1c(C)nn(-c2ccc(N3CCCC3)nn2)c1C
  -8%, -9%
70: CCCCN1C(=O)C(CC(=O)NCC2CCCCC2)CC(C(=O)N2CCOCC2)=C1C (stereo not given)
  -14%, -1%
71: COc1ccccc1CNC(=O)c1ccc(C)s1
  0%, -2%
72: Cc1ccc2c(c1)nnn2C1CCN(CC(=O)NCCc2ccccc2)CC1
  -19%, -6%
73: CC(=O)Nc1ccc(S(=O)(=O)N(C)CC(=O)N(C)Cc2sccc2C)cc1
  -6%, -4%
74: CCOc1ccc(OCCCC(=O)N(C)CC(=O)Nc2ccccc2Br)cc1
  -10%, -14%
75: COc1ccc(NC(=O)C2C3CCC(O3)C2C(=O)O)c(C)c1 (stereo not given)
  11%, ?
76: CC(C)(C)OC(=O)N1CCC(NC(=O)c2[nH]cnc2C(=O)Nc2ccc(Br)cc2F)CC1
  ?, -28%
77: c1ccc(N(c2ccccc2)c2nc(-n3ccnc3)nc(-n3ccnc3)n2)cc1
  -18%, -25%
78: Nc1nonc1-n1nnc(C(=O)N/N=C/c2cccc(Cl)c2)c1-c1cccs1
  -19%, -6%
79: c1ccn2cc(CSc3nnc4ccccn34)nc2c1
  -9%, -3%
80: CCc1ccc(-c2[nH]c3c(c2-c2sc(C)c(C(=O)OC)c2O)c(=O)[nH]c(=O)n3C)cc1
  3%, -15%
81: COc1ccc(C2c3c(-c4cc(Cl)c(C)cc4O)n[nH]c3C(=O)N2Cc2cccnc2)cc1OC (stereo not given)
  ?, ?
82: Cc1cccc(N2CCN(C(=O)C3CCN(S(=O)(=O)c4ccc5c(c4)oc(=O)n5C)CC3)CC2)c1C
  -16%, -24%
83: Nc1ncnc2c1ncn2[C@@H]1O[C@H](C(=O)N[C@@H](CO)Cc2ccccc2)[C@@H](O)[C@H]1O
  3%, 27%
84: Cc1ccc(C)c(NC(=O)Cn2nnc(C(=O)Nc3c(C)cccc3C)c2N)c1
  -10%, i
85: O=C(N/N=C/c1ccc(OC(F)F)cc1)c1ccc(Br)cc1
  -14%, i
86: CCOC(=O)CCn1c(=O)c2cccn2c2cccnc21
  -2%, -4%
87: OCC1CCCN(C(=S)Nc2ccc(Nc3ccccc3)cc2)C1 (stereo not given)
  -19%, -25%
88: COCCCNCCOc1ccc(C)cc1[N+](=O)[O-]
  -9%, i
89: Cc1ccc(N2CC(C(=O)Nc3nnc(SCC(=O)NCC4CCCO4)s3)CC2=O)cc1C (stereo not given)
  -8%, i
90: CCCCn1c(N)c(N(CC(C)C)C(=O)CSCC(=O)Nc2ccc(C)cc2)c(=O)[nH]c1=O
  -16%, -17%

Of the compounds above, 4 have a furan ring, fused or not.
Screens in order – Vaccinia Venus, Vaccinia mCherry
3: COc1ccc2c(CC(=O)Nc3ccc(OC)c(NS(=O)(=O)c4ccc(F)cc4)c3)coc2c1
  -13%, -26%
40: Cc1ccc(C)c(N2CCN(S(=O)(=O)c3ccc(-c4ccc(=O)[nH]n4)o3)CC2)c1
  -10%, i
44: COc1ccc2c(C=Nc3c(C)n(C)n(-c4ccccc4)c3=O)c(O)n(Cc3ccco3)c(=O)c2c1
  -14%, ·
54: CCCc1nc2c(sc3nc4c(cc32)COC(C)(C)C4)c(=O)n1Cc1ccco1
  -14%, -19%

(further entries)
Screens in order – Vaccinia Venus, Vaccinia mCherry
91: COCC(=O)Nc1c(I)c(C(=O)NCC(O)CO)c(I)c(C(=O)N(C)CC(O)CO)c1I (stereo not given)
  -14%, i
92: O=C(NC(Cc1ccccc1)C(=O)O)/C(=C/c1ccc([N+](=O)[O-])cc1)NC(=O)c1ccco1 (stereo not given)
  -9%, -4%
93: CC12CC[C@H]3[C@@H](CCC4(O)C[C@H](O)CCC34/C=N/NC(=O)Cc3ccccc3)C1(O)CCC2C1=CC(=O)OC1 (stereo not given in full)
  ?, ?
94: COc1ccc(CN=C2NN=C(c3ccc(Cl)cc3)CS2)cc1
  -10%, i
95: O=C1C=C(c2ccc(Cl)cc2)C(=O)N1Nc1ccccc1
  -5%, ·
96: COc1ccc(NC(=O)Cn2c(=O)n(CCC(=O)NCc3ccccc3OC)c(=O)c3ccccc32)cc1Cl
  -27%, -22%
97: O=C(CN1CCOc2ccccc21)NC1CCCCCCC1
  6%, -6%
98: COc1ccc(OC)c(/C=N/NC(=O)c2csc3ccccc23)c1
  -19%, ·
99: CN(C)S(=O)(=O)c1cccc(NC(=O)COC(=O)c2ccc(Br)o2)c1
  -14%, -21%
100: CCc1ccc(/C=C2\SC(=S)N(CCCC(=O)Nc3ccccn3)C2=O)cc1
  5%, ·
101: Fc1ccc(/C=N/Nc2nn[nH]n2)cc1
  -2%, -19%
102: CCOc1ccc(C(=O)c2cn(Cc3ccc(OC)cc3)c3cc(OC)c(OC)cc3c2=O)cc1
  -10%, -20%
103: c1ccc(-n2c(-c3ccco3)nnc2N2CCOCC2)cc1
  0%, -4%
104: COc1ccc(NS(=O)(=O)c2cccc(NC(=O)C34CCC(CC3)C4)c2)cc1
  -18%, i
105: CC(=O)c1c(-c2ccc(C)cc2)nc2c3ccccc3ccn12
  -19%, -19%
106: Cn1cnc2c(N3CCCCC3)nccc21
  3%, -12%
107: CC(C1CC2CCC1C2)n1c(COc2ccccc2F)nnc1SCC(N)=O (stereo not given)
  -1%, ·
108: COc1ccc(CN(CC(=O)NC2CCCC2)C(=O)CCC(=O)Nc2nccs2)cc1
  -12%, -9%
109: CC(NC(=O)Cc1ccc(NC2=NC3CS(=O)(=O)CC3S2)cc1)c1ccccc1 (stereo not given)
  7%, -4%
110: Cn1cccc1C(=O)NCc1ccccn1
  -15%, i

Quoted at random: 2 entries already listed
Screens in order – Vaccinia Venus, Vaccinia mCherry
99: CN(C)S(=O)(=O)c1cccc(NC(=O)COC(=O)c2ccc(Br)o2)c1
  -14%, -21%
91: COCC(=O)Nc1c(I)c(C(=O)NCC(O)CO)c(I)c(C(=O)N(C)CC(O)CO)c1I (stereo not given)
  -14%, i
